Assay outcomes as filed in PubChem BioAssay.
miR-21 reporter: raises the signal of a miR-21 reporter. AID 2288. HeLa miR-21 FLuc reporter, luciferase, 48 h. Potency, µM (highest dose often 38.3 µM), inactives show at the highest dose reporter change, positive = more light. 340,000 tested, under 10 active; active = well fitted rising curve with a large enough effect; inconclusive = small, poorly fitted or top-dose-only effect; inactive = no such curve, though single readings can be large or run the other way;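 note: % of control where 0% means no effect; miR-21 action dims this reporter so a rising signal means less miR-21 action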
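Using DMEM plus 10% FBS, HeLa miR-21-FLuc cells are incubated with test compounds (final up to about 40uM) for 48 hours; firefly luciferase signal is then imaged following reagent-mediated lysis.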
GLA inh pH 4.5: inhibitors of human alpha-galactosidase A at pH 4.5; P06280; purified enzyme, 4-MU-alpha-Gal fluorescence, pH 4.5; activity change, negative = inhibition, % at 105 µM; 230,000 tested, under 10 active; AID 1467; inconclusive = small, poorly fitted or top-dose-only inhibition, or a rising curve; inactive = flat fitted curve, though single readings scatter; no compound was filed as active;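 note: 0% = full activity with enzyme and -100% = basal without enzyme; dose as in the result columns while the protocol names 77 µM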
Target sequence (P06280 whole entry, looked up): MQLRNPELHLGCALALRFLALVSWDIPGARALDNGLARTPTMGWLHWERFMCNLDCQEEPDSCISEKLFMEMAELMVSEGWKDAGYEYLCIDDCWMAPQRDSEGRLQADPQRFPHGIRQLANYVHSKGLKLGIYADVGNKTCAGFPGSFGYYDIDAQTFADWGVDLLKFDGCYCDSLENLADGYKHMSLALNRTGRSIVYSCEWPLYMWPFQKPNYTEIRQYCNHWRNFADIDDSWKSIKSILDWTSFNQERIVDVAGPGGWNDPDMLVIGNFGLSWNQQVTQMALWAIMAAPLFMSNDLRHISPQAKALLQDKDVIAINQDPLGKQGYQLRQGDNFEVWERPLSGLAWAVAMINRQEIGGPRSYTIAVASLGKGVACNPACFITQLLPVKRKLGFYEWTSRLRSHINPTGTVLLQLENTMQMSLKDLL
Rango complex inh: inhibitors of Rango-importin beta complex formation; Q14974; Rango CFP/YFP FRET sensor + importin beta, 45 min; Potency, µM (titrated, usually from 92.2 µM), for the others: at the highest dose inhibition of complex formation; actives 0.031% (n = 340,000); active = rising FRET ratio curve, often small or poorly fitted; inconclusive = mostly compound fluorescence or quenching in the first reads; inactive = flat curves in all reads;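 note: potency is the fitted concentration of half-maximal effect; 0% = DMSO wells and 100% = buffer wells lacking importin beta; nearly all actives have a fitted effect of over 15% in size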
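FRET biosensor (snurportin 1 IBB flanked by EYFP and cerulean), 50 nM, with compound 5 min, then 0.125 microM importin beta in PBS, 1 mM DTT, 0.02% Tween-20, 0.1% BSA. CFP/YFP ratio read after 45 min at room temperature; pre-read flags interference.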
Rango release inh: inhibition of RanGTP-driven Rango-importin beta dissociation. AID 540253. actives 0.071% (n = 340,000). Potency, µM (series often up to 46.1 µM), for inactives: at the top dose activity change, negative = inhibition. O95149+P62826. Biochemical FRET Rango-importin beta, RanGTP-induced dissociation; active means falling FRET ratio curve, often poorly fitted, with flat reads before Ran was added; inconclusive means other falling curves, or compound fluorescence or quenching; inactive means flat or rising ratio curve;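 note: potency is the fitted concentration of half-maximal effect; % of control where 0% means no effect; nearly all actives have a fitted effect of over 45% in size; -100% = wells without RanGTP and RCC1; the record marks most hits as doubtful in a second field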
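Compounds sat 5 min at room temperature with 0.1 uM Rango biosensor plus 0.25 uM importin beta, then FRET pre-read. RanGTP-RCC1 (0.6 uM Ran, 2mM GTP, 0.2 uM RCC1) added for 45 min, and the CFP/YFP post-read measured blocked complex dissociation.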
The depositor's hits bear a star; ? = inconclusive; · = no result given; & = joins results of further samples. An excerpt, so the mix of outcomes need not match the whole.

cpd	Rango complex inh	Rango release inh	GLA inh pH 4.5	molecule	miR-21 reporter
1	-2.0%	11%	·	CC(NC(=O)c1ccccc1Cl)C(=O)Nc1ccc2c(c1)OCO2 (centres undefined)	·
2	-1.1%	-6%	3	CN(C)c1nc(Oc2ccc(=O)[nH]n2)nc(N2CCOCC2)n1	-7%
3	-0.9%	-15%	·	CC1(C)C(=O)NCCN1C(=O)CC1C(=O)NCCN1Cc1cccc(C(F)(F)F)c1 (centres undefined)	-1%
4	-4.2%	-2%	-3	CCC(C)NC(=O)c1c(N)n(/N=C/c2ccccn2)c2nc3ccccc3nc12 (centres undefined)	-6%
5	1.9%	-10%	7	CCc1nnc(NC(=O)Cc2cccs2)s1	-8%
6	-3.4%	41%	-10	Cc1occc1-c1nnc(SCC(=O)NCc2cccs2)n1CC1CCCO1 (centres undefined)	0%
7	-0.7%	35%	-3	O=C(CSc1nnc(-c2ccncc2)n1Cc1ccco1)Nc1ccccc1F	0%
8	1.1%	14%	-8	O=[N+]([O-])c1cc(Cl)ccc1Sc1ccccn1	-13%
9	?	-25%	0	O=C(Oc1ccc2c(c1)OCC2=O)c1ccccc1	-12%
10	2.8%	-16%	·	CCOc1ccccc1/C=C/c1onc(C)c1S(=O)(=O)N1CCC(C(=O)NC)CC1	1%
11	0.0%	8%	-19	CCOc1ccc(Br)cc1S(=O)(=O)Nc1ccc(C(=O)Nc2ccc(C)cc2)cc1	0%
12	5.0%	-8%	·	COCCN(Cc1nc(-c2ccc(-c3ccccc3)cc2)oc1C)C(C)C	-10%
13	-0.4%	1%	·	COc1ccc(S(=O)(=O)N(C)c2ccc(OC(=O)C(C)Oc3ccc(F)cc3)cc2)cc1 (centres undefined)	·
14	1.8%	-14%	-3	O=C(CSc1nc2ccccc2[nH]1)NCc1ccc2c(c1)OCO2	-7%
15	3.9%	19%	-6	O=C(NCc1cccnc1)c1c(O)c2cccc3c2n(c1=O)CCC3	1%
16	2.4%	1%	·	Cc1ccc2c(c1)N(CC(=O)N1CCOCC1)C(=O)C(C)O2 (centres undefined)	0%
17	5.1%	15%	-7	OC1(CN2CCOCC2)C2CN3CCN(C2)CC1(c1ccccc1)C3 (centres undefined)	0%
18	4.5%	3%	6	CCOc1cccc(NC(=O)C2CCCN(S(=O)(=O)c3ccc(-n4cnnn4)cc3)C2)c1 (centres undefined)	0%
19	5.0%	-4%	-5	Cc1ccn2c(=O)nc(SCc3cccc(C(F)(F)F)c3)nc2c1	-3%
20	3.5%	-8%	-5	NS(=O)(=O)c1ccc(CCNC(=O)c2ccccc2[N+](=O)[O-])cc1	1%
21	3.5%	6%	·	O=C(COC(=O)c1ccc([N+](=O)[O-])cc1)Nc1ccccc1C(=O)NC1CC1	·
22	?	2%	-5	Cc1cc(NC(=O)CSc2ccc(F)cc2)no1	-10%
23	2.6%	11%	·	COc1ccc(C(=O)NCc2nnc(SCC(=O)NC3CCCCC3)o2)cc1	-1%
24	-0.7%	0%	·	CC(C)(C)c1ccc(OCCC(=O)OCC(=O)NCc2ccccc2)cc1	·
25	3.0%	2%	·	COc1ccc(CN(C)C(=O)c2ccc(COc3ccccc3)cc2)c(OC)c1	0%

Results in Rango complex inh, for 7 of the compounds above:
# | SMILES | Rango complex inh
18 | CCOc1cccc(NC(=O)C2CCCN(S(=O)(=O)c3ccc(-n4cnnn4)cc3)C2)c1 (centres undefined) | 4.5%
22 | Cc1cc(NC(=O)CSc2ccc(F)cc2)no1 | ?
16 | Cc1ccc2c(c1)N(CC(=O)N1CCOCC1)C(=O)C(C)O2 (centres undefined) | 2.4%
6 | Cc1occc1-c1nnc(SCC(=O)NCc2cccs2)n1CC1CCCO1 (centres undefined) | -3.4%
20 | NS(=O)(=O)c1ccc(CCNC(=O)c2ccccc2[N+](=O)[O-])cc1 | 3.5%
14 | O=C(CSc1nc2ccccc2[nH]1)NCc1ccc2c(c1)OCO2 | 1.8%
3 | CC1(C)C(=O)NCCN1C(=O)CC1C(=O)NCCN1Cc1cccc(C(F)(F)F)c1 (centres undefined) | -0.9%

New compounds follow
cpd	Rango complex inh	Rango release inh	GLA inh pH 4.5	molecule	miR-21 reporter
26	?	?	-12	CCN(CC)c1ccc(C(=O)c2cnc(/N=C/N(C)C)s2)cc1	-31%
27	?	-13%	1	O=C(c1cnn2c(C(F)F)cc(-c3ccccc3)nc12)N1CCc2ccccc2C1	7%
28	-4.0%	-15%	-5	O=S(=O)(NC1CCN(Cc2ccccc2)CC1)c1cccc2cccnc12	-7%
29	?	-27%	5	Cc1ccc(S(=O)(=O)NCC2CCC(C(=O)NCc3ccco3)CC2)cc1 (centres undefined)	-4%
30	5.0%	1%	-27	COc1cc(/C=N/NC(=O)c2cccc(S(=O)(=O)N3CCCCC3)c2)cc(Br)c1O	-3%
31	-1.7%	-13%	-7	O=C(c1ccc(=O)oc1)N1CCN(C(c2ccccc2)c2ccccc2)CC1	-3%
32	-1.2%	23%	·	CCc1ccc(NC(=O)C/C(C)=N/NC(=O)COc2ccc(C)cc2Br)cc1	-1%
33	4.2%	-6%	8	CNC(=O)CSc1nc(-c2ccccc2)c(-c2ccccc2)[nH]1	-11%
34	-0.1%	-5%	·	N/C(=N\NS(=O)(=O)c1ccc(Cl)cc1)c1ccccn1	·
35	-2.8%	34%	·	COc1ccc(-c2csc(NC(=O)CN3C(=O)NC4(CCCC4)C3=O)n2)cc1OC	·
36	1.5%	-2%	-11	Cc1nn(C)c(C)c1S(=O)(=O)N1CCC(C(=O)NC(C)c2ccccc2)CC1 (centres undefined)	-8%
37	-0.2%	0%	·	Cc1cccc(C)c1NC(=O)CNC(=O)c1cncc(Br)c1	-2%
38	-3.6%	-13%	-8	CCOC(=O)c1cc(C#N)c(SCC(=O)Nc2ccc(C(C)=O)cc2)[nH]c1=O	-21%
39	0.8%	-6%	·	Cc1n[nH]c(C)c1CN(C)C(=O)C1CCC(=O)N(CC2CCCCC2)C1 (centres undefined)	-1%
40	4.3%	7%	0	COc1ccccc1NS(=O)(=O)c1ccc(NC(=O)CCNC(=O)c2ccco2)cc1	-3%
41	0.0%	11%	-7	Cc1onc(-c2c(Cl)cccc2Cl)c1/C(N)=N/OC(=O)C(C)(C)C	4%
42	-3.4%	18%	5	COc1nc(OC)nc(Oc2ccc([N+](=O)[O-])cc2Cl)n1	-3%
43	-3.4%	-4%	·	Cc1ccccc1CNCc1ccc2c(c1)OCO2	-3%
44	2.7%	-9%	-8	O=C(c1cccc(C(F)(F)F)c1)N(c1ccccn1)C1CCCCC1	8%
45	0.7%	-1%	1	CC(=O)Nc1ccc(C2=NN(Cc3nnc(-c4ccccc4)o3)C(=O)SC2)cc1	-24%
46	0.3%	4%	13	CC(=O)Nc1ccc(S(=O)(=O)NCC(=O)OCC(=O)N2CCCc3ccccc32)cc1	-1%
47	-0.3%	-10%	8	COc1ccc(NC(=O)NN(C(=O)c2ccccc2)C(C)(C)C)cc1	1%
48	0.1%	5%	·	COc1ccccc1C(=O)COC(=O)c1cnc(C)cn1	·
49	2.7%	15%	·	COc1ccc(Cc2nnc(NC(=O)CS(=O)(=O)c3ccccc3)s2)cc1OC	7%
50	?	-14%	5	CCOC(=O)c1cnc(SCC(=O)N2CCC(C(N)=O)CC2)nc1N	1%

Copied from above, entries 48 to 50
cpd	Rango complex inh	Rango release inh	GLA inh pH 4.5	molecule	miR-21 reporter
48	0.1%	5%	·	COc1ccccc1C(=O)COC(=O)c1cnc(C)cn1	·
49	2.7%	15%	·	COc1ccc(Cc2nnc(NC(=O)CS(=O)(=O)c3ccccc3)s2)cc1OC	7%
50	?	-14%	5	CCOC(=O)c1cnc(SCC(=O)N2CCC(C(N)=O)CC2)nc1N	1%

Continuation.
cpd	Rango complex inh	Rango release inh	GLA inh pH 4.5	molecule	miR-21 reporter
51	?	12%	7	CCOC(=O)C1C(=O)C(C(C)=O)C(=O)CC1CC(C)SCC (centres undefined)	0%
52	-3.6%	-2%	-11	COc1ccc(-c2cn3cccnc3n2)cc1NS(=O)(=O)c1ccccc1	-7%
53	-0.5%	3%	·	O=c1c(/C=N\NS(=O)(=O)c2ccccc2)coc2ccc(Cl)cc12	10%
54	2.4%	2%	27	CCCCn1c2nc3ccccc3nc2c2c(=O)n(-c3ccccc3)cnc21	-3%
55	?	?	-11	COC(=O)C1=C(C)NC=C([N+](=O)[O-])C1c1ccc(OC)cc1 (centres undefined)	4%
56	1.4%	-21%	·	CN1C(=O)C(=O)/C(=C(/O)c2ccc(Br)cc2)C1c1ccc(F)cc1 (centres undefined)	-1%
57	-0.6%	-12%	-6	Cc1cccc(C)c1NC(=O)C(NS(=O)(=O)c1cccs1)c1ccccc1 (centres undefined)	-10%&-2%
58	?	-13%	0	O=C1COc2ccc(C(=O)COC(=O)c3ccc4ccccc4n3)cc2N1	-6%
59	0.2%	-3%	2	COc1ccc(NC(=O)C2C3CCC4C(CCC32)C4(Cl)Cl)cc1 (centres undefined)	-5%
60	0.4%	-13%	0	O=C(CCc1nnc(Cc2ccc(-c3ccccc3)cc2)o1)N1CCCC1	2%
61	3.9%	-7%	·	Cc1ccc(C2=NN(C(=O)CCC(=O)O)C(c3cccc([N+](=O)[O-])c3)C2)cc1 (centres undefined)	-2%
62	-1.4%	5%	·	CC(OC(=O)CNC(=O)c1cccc(F)c1)C(=O)NC1CCCCC1C (centres undefined)	·
63	-1.6%	-12%	-10	CN1OC(c2ccccc2)=C(CO)C1c1ccccc1 (centres undefined)	-8%
64	0.9%	0%	-28	CCOc1cc(C)c(Cl)cc1S(=O)(=O)N1CCCC1	-12%
65	0.1%	11%	·	Cc1ccc(NC(=O)CCC(=O)NNC(=O)COc2ccc([N+](=O)[O-])cc2)cc1C	-9%
66	0.0%	-2%	-2	CC1CCCCC1NC(=O)CN1CCC(O)(c2ccc(F)cc2)CC1 (centres undefined)	-4%
67	-0.6%	-14%	9	COc1ccc(/C=N/Nc2cn[nH]c(=O)c2Cl)cc1	-57%
68	2.4%	21%	-21	CCOC(=O)c1cnc(-n2nc(C)cc2C)nc1NNc1nc(-c2ccccc2)cc(-c2ccccc2)n1	-1%
69	-1.5%	2%	?	Nc1ncc(-c2ccccc2)c(-c2ccc(OCc3ccccc3)cc2O)n1	-11%
70	-0.7%	-1%	·	O=C(Nc1c(C(=O)N2CCN(c3ccccn3)CC2)oc2ccccc12)c1ccc([N+](=O)[O-])cc1	-2%
71	-1.6%	9%	·	COCC(=O)N1CCC(Oc2ccc(C(=O)NC(C)c3nc(C)sc3C)cc2)CC1 (centres undefined)	-3%
72	7.3%	18%	-1	Cc1cccc(C)c1NC(=O)CCCN1CC(C)OC(C)C1 (centres undefined)	-3%
73	?	?	-2	CCS(=O)(=O)N1CCN(c2ccc([N+](=O)[O-])c(NCC3CCCO3)c2)CC1 (centres undefined)	-9%
74	3.6%	-12%	5	Cc1n[nH]c(C)c1S(=O)(=O)N1CCCC(C(=O)N2CCN(c3ccc(Cl)cc3)CC2)C1 (centres undefined)	21%
75	-1.7%	-3%	1	CC(=O)Nc1ccc(/C(C)=N/Nc2nc(Nc3ccccc3)nc(N3CCOCC3)n2)cc1	-22%
76	·	·	4	CCN1CCc2c(OCC(=O)Nc3cccc(C)c3C)cccc2C1=O	-10%
77	-2.9%	1%	6	CSc1c(CC(=O)NCCO)n(C)c2ccccc12	-6%
78	2.8%	-16%	-5	COC(=O)c1ccc2c(=O)n(Cc3ccc4c(c3)OCO4)c(SCC(=O)N3CCCC3)nc2c1	-2%
79	0.4%	0%	2	CC1CC(=O)Nc2ccccc2N1C(=O)Nc1ccccc1 (centres undefined)	-2%
80	-2.1%	-18%	·	CCN1CCN(C(=O)C2CCN(c3nnc(-n4c(C)ccc4C)s3)CC2)CC1	1%
81	0.2%	-6%	0	O=C(Nc1nnc(-c2ccccc2F)s1)c1cccnc1	-47%
82	1.7%	-7%	2	CCCCCCC1CC(CCC(=O)Nc2ccc([N+](=O)[O-])cc2)C(=O)O1 (centres undefined)	-2%
83	?	?	·	Cn1c2ccccc2c(=O)c2cc(C#CC3(O)CCCCC3)ccc21	-17%
84	0.3%	11%	1	CCOC(=O)c1cc(-c2nnc(-c3ccc(Oc4ccccc4)cc3)o2)c(C)nc1C	-4%
